High-throughput results as filed in PubChem.
UCH37 DUB inh – human UCH37 deubiquitinating enzyme inhibition | inhibition, % (test concentration not listed) | AID 588478 | Q9Y5K5 | purified proteasome/UCH37, Ub-AMC cleavage fluorescence | 0.33% of 330,000 active;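 active means mean of two replicates above 20%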;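 further: 0% = compound-free wells with enzyme and 100% = wells lacking proteasome; stock transfer was 100 nL into about 20 µL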
Target sequence (Q9Y5K5 whole entry, looked up): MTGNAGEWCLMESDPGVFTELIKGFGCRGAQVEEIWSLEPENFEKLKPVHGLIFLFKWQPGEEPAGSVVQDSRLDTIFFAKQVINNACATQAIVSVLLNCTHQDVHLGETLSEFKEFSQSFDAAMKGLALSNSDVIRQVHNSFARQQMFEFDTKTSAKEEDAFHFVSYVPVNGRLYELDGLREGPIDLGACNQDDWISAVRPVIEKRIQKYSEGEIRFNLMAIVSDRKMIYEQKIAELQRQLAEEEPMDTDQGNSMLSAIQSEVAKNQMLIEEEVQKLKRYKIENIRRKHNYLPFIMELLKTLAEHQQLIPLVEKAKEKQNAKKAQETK
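System: Proteasome-associated human UCH37 deubiquitinase; Input: 0.15 nM proteasome in added enzyme buffer; Also added: Ub-AMC substrate from 1 µM stock; Incubation: 30 min compound-proteasome preincubation then 25 min substrate reaction, room temperature; Detection: fluorescence, ex 355 nm, em 460 nm; Read-out: % inhibition of Ub-AMC cleavage fluorescence; Benchmarks: no-proteasome and no-compound wells.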
Vif TR-FRET – HIV-1 Vif–A3G interaction blockers – biochemical, TR-FRET, GST-Vif 1-94, biotin-A3G peptide, dose response retest, primary screen (AID 1117319) | 0.57% of 260,000 active | inhibition, %; hits with a dose series show IC50 in µM | TR-FRET GST-Vif / biotin-A3G peptide binding; higher % means a stronger effect; test concentration not given here; strong numbers were not always called active;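 active means above the screen mean plus three standard deviations and confirmed in dose response; inconclusive means results disagree or hit not tested in dose response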;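 further: Vif residues 1-94 fused to GST binding biotinylated APOBEC3G peptide 110-148; 0% = full assay without inhibitor and 100% = GST in place of GST-Vif; retest series ran down from 100 µM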
E coli growth – E. coli growth inhibition; Escherichia coli growth, OD600, 23 h; active compounds read low; OD600 absorbance (test concentration not listed); 0.21% of 330,000 active;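 active means OD600 absorbance below the run mean of sample wells minus 3.6 SD, in any replicate, cut at about 0.56 in these data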;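 further: stock transfer was 300 nL into about 60 µL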
LANA-H2B inh – blocks KSHV LANA binding to histone H2A/H2B; 0.6% of 320,000 active; inhibition, % (concentration not given with the values); Q9QR71; AID 2629; cell-free LANA-H2A/H2B peptide, fluorescence polarization; in the data active means inhibition mostly above about 10%, no sharp cut-off; inactive means mostly below about 6.7%;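 further: stock transfer was 7.5 nL into about 10 µL; 0% = median of vehicle wells and 100% = median of positive control wells; one replicate is shown; the record names a cut of 25% in any replicate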
Bfl-1 A1 inh – inhibitors of the anti-apoptotic protein A1, read as caspase activation; MEF A1-2A-BIM cells, Caspase-Glo 3/7 luminescence, 3 h; percent of clofoctol response, vehicle zero; AID 2462; caspase activation, % (no concentration beside the values); 0.066% of 330,000 active;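 active means over half of replicate activation scores above 10%, or exactly half above 10 with the replicate mean above 10; inconclusive means replicate mean below 10 yet half the replicates above 10; inactive means over half of replicates below 10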;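 further: wells of about 30 µL received 50 nL stock; many hits fall short of the cut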
B2AR ag – human beta-2 adrenergic receptor agonism by FAP | Am2.2-beta2AR cells, FAP receptor internalization, flow cytometry; reference of the scale not given here | response, % (test concentration not listed) | 0.43% of 340,000 active | AID 504454;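 active means response above a set limit, near 3 SD of response in nonfluorescent compounds, cut at about 42% in these data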;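 further: stock transfer was 100 nL into about 11 µL; a reference agonist was the positive control; negative values mostly stem from fluorescent compounds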
HNF4A DNA FP – change in binding of human HNF4 alpha to DNA | HNF4a-FITC DNA binding, fluorescence polarization, 1 h | activity change, % at 10 µM | 0.3% of 360,000 active | AID 1224865; in the data active means activity change above about 30%, passing the limit was not always enough;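 further: controls were the assay level and a saturating level of protein; the project sought stronger binding though the title names inhibitors; some compounds called inactive have numbers as strong as hits; positive values seem to mean higher polarization but the record does not say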
Target sequence (P41235 whole entry, looked up): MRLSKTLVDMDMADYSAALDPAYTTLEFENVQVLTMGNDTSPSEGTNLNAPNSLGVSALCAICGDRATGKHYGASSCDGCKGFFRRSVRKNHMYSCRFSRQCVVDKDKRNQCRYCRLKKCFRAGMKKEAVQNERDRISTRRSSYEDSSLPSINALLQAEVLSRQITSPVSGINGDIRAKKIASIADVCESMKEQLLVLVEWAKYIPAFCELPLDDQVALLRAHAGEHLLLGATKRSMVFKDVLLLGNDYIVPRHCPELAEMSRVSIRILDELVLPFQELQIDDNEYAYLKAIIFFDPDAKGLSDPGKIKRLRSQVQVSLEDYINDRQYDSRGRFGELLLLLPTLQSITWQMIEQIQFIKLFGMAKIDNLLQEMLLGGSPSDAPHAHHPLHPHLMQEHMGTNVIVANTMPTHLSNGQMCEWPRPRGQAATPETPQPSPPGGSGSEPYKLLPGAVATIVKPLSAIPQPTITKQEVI
Starred values were filed as active, the others as inactive; u = inconclusive; x = no result given; & = joins results of further samples.

SMILES	UCH37 DUB inh	Vif TR-FRET	E coli growth	LANA-H2B inh	Bfl-1 A1 inh	B2AR ag	HNF4A DNA FP
CC1CC(C)(C)NC(=S)N1CCCC(=O)Nc1ccccc1F (stereo not drawn)	0.7	17.6%	0.671	-0.4	0.3	-5.8	3.5
O=S(=O)(NCc1ccc(F)cc1)c1ccc(-n2cnnn2)cc1	2.9	x	0.678	x	x	0.0	-0.6
C[C@H](CO)N1C[C@H](C)[C@@H](CN(C)CC2CCCCC2)Oc2c(NS(=O)(=O)c3cccs3)cccc2C1=O	5.4	x	x	-2.3	4.6	-2.7	4.0
CCOc1ccc(CCNC(=O)C2=C(C)C(=O)OC23CCC(C)CC3)cc1OCC (stereo not drawn)	x	-0.7%	x	0.2	0.7	12.8	0.1
COc1cccc(NC(=O)Nc2ccc3c(c2)OCO3)c1	0.2	6.0%	0.678	-0.4	-6.4	-1.8	-5.1
COc1ccc(CNC(=O)C2(CC3CC(c4ccccc4)=NO3)CCN(C(=O)CCCCCBr)CC2)cc1 (stereo not drawn)	3.4	x	0.709	0.3	-0.3	-1.8	-5.0
O=c1c2sccc2nc(SCc2cc(=O)n3cc(Cl)ccc3n2)n1Cc1ccccn1	-13.8	15.2%	0.701	-1.5	-1.3	-8.9	-8.7
CCn1ncc(Cl)c1C(=O)Nc1ccc2c(c1)CCC2	x	13.0%	x	-10.4	-1.3	-5.5	9.4
Cc1nn(CC(=O)OC(C)C(=O)Nc2ccccc2[N+](=O)[O-])c(C)c1[N+](=O)[O-] (stereo not drawn)	1.2	x	0.675	-12.3	-0.3	1.2	-0.5
CCOC(=O)C1CCCN(c2c(NCCc3ccccc3)c(=O)c2=O)C1 (stereo not drawn)	3.1	13.8%	0.661	8.4	1.1	-0.7	2.5
O=C(COc1ccc(Br)cc1Cl)Nn1cnnc1	1.6	9.7%	0.64	2.3	0.4	7.7	-1.9
COc1ccc(CC(NC(C)=O)C(=O)NC2CCN(C(=O)Nc3ccc(Cl)cc3)CC2)cc1OC (stereo not drawn)	1.7	u	0.652	1.8	0.1	2.9	-0.3
CC(NC(=S)N1CCOCC1)c1ccccc1 (stereo not drawn)	1.3	-4.1%	0.665	-3.3	0.6	3.1	0.3
CC1CN(S(=O)(=O)c2cc(C(=O)NCc3ccncc3)ccc2Cl)CC(C)O1 (stereo not drawn)	0.0	77.2%	0.696	1.1	-0.6	0.0	-3.1
O=C(CN1C(=O)c2cccc3cccc(c23)C1=O)N1CCN(Cc2ccc3c(c2)OCO3)CC1	-59.3	3.4%	0.652	1.7	0.4	10.8	3.2
Cc1ccc(C(=O)N2CCN(c3cc(=O)[nH]nc3-c3ccccc3)CC2)cc1	1.0	0.8%	0.685	3.7	0.3	-5.8	-3.3
O=C(COCc1cc(-c2ccc3c(c2)OCO3)on1)N1CCN(c2ccc(F)cc2)CC1	-0.2	1.6%	0.665	-0.6	0.0	1.7	2.5
CCC(C)(C)NC(=O)CN(C(=O)c1snc(C(N)=O)c1N)c1ccc2c(c1)OCCO2	0.7	-0.4%	0.713	6.4	0.8	-6.5	0.7
COC(=O)C(O)(CC(=O)Nc1cc(OC)c(OC)c(OC)c1)C(F)(F)F (stereo not drawn)	0.8	17.0%	0.781	0.1	0.8	-5.2	-2.1
S=C(NCCN1CCOCC1)Nc1ccc(Cl)c(Cl)c1	2.3	1.8%	0.648	-1.7	-0.2	-6.0	1.5
Cc1ccnc(NC(=O)C(Cc2ccccc2)NC(=O)c2ccccc2)c1 (stereo not drawn)	6.1	-18.3%	0.65	0.0	0.1	-5.2	-0.1
CCOc1cccc(C(=O)Nc2cccc(-c3nc4ncccc4o3)c2C)c1	0.9	4.3%	0.694	3.9	0.9	-16.4	2.4
C#CCOCCOCCOCCNc1nc(N2CCN(C(=O)CCCCCCCCCCNC(=O)[C@H](CCCCN)n3cc(C[C@@H](C)CC)nn3)CC2)nc(N2CCN(C(=O)CCCCCCCCCCNC(=O)[C@H](CCCN=C(N)N)n3cc(C[C@@H](C)CC)nn3)CC2)n1	x	x	x	-56.4	-0.7	42.1*	213.3
COC(=O)c1noc(C)c1-c1ccnn1C(=O)c1ccc(C)cc1	0.8	-2.9%	0.686	1.8	0.6	3.8	3.1
CCOc1cc(C2C(C#N)=C(N)OC(C)=C2C(C)=O)cc(Br)c1O (stereo not drawn)	5.0	12.9%&32.1%	0.642	16.7	-0.4	6.9	-32.3
CCCN1CCN(CCCNC(=O)Cn2nc(-c3ccccc3)ccc2=O)CC1	0.8	-1.5%	0.707	1.3	0.4	-0.2	1.4
CC(=O)Nc1ccc(C(=O)CS(=O)(=O)c2ccc(C)cc2)cc1	3.6	6.7%	0.756	3.5	0.0	0.9	0.5
COc1ccccc1C(CNC(=O)c1ccco1)N1CCCC1 (stereo not drawn)	4.4	-2.8%	0.686	-3.8	-0.3	1.0	0.6
O=C1OC(C(=O)Nc2nccs2)Cc2ccccc21 (stereo not drawn)	-1.2	20.3%	0.764	-0.8	0.0	-2.6	-0.1
CSc1cccc(CN2CCCC(C(=O)Nc3cccc(-n4cccn4)c3)C2)c1 (stereo not drawn)	1.8	x	0.631	-8.5	0.3	-7.1	-0.8
CCOc1ccc(-n2c(SCc3ccc([N+](=O)[O-])cc3)nnc2-c2ccccc2)cc1	0.5	x	0.691	0.9	-1.4	-18.2	-3.4
CSc1ccccc1NC(=O)c1ccc(Cl)s1	2.4	2.9%	0.67	8.8	-0.3	2.7	0.0
COc1ccc(-c2csc(NC(=O)CCCc3nc4ccccc4c(=O)[nH]3)n2)cc1OC	-0.4	5.5%	0.617	7.4	0.9	9.1	4.1
CC(Sc1nnnn1-c1ccc(Cl)cc1)C(=O)NCC(=O)Nc1ccc(F)c(F)c1F (stereo not drawn)	4.3	x	0.612	-7.7	0.2	-5.3	1.2
COc1cccc(N(C(=O)c2snc(C(N)=O)c2N)C(C(=O)NCC2CCCO2)c2ccc3ncccc3c2)c1 (stereo not drawn)	-124.9	x	0.708	6.1	-0.1	-20.5	-3.6
CC(NC(=S)NCCN1CCOCC1)C12CC3CC(CC(C3)C1)C2 (stereo not drawn)	2.0	1.6%	0.679	4.0	-1.6	1.7	-0.6
COC(=O)c1ccc(NC(=O)c2ccc(NS(=O)(=O)c3cccc4cccnc34)cc2)cc1	6.1	-2.6%	0.72	0.6	-0.4	5.3	-1.9
COc1ccc(N2CC(NS(=O)(=O)c3cccs3)CC2=O)cc1OC (stereo not drawn)	-0.1	0.0%	0.652	-6.3	-0.7	13.5	-4.9
O=c1c2cc(N3CCOCC3)ccc2[nH]c(=S)n1CCCN1CCN(c2ccccc2F)CC1	-44.4	-23.7%	0.643	-5.5	-0.2	x	x
CCCc1cc(C(=O)NC2CCCN(Cc3ccccc3F)C2)no1 (stereo not drawn)	-1.4	x	0.678	3.9	0.1	-8.8	-0.2
O=S(=O)(c1cccc2cnccc12)N1CCNCC1	0.2	x	0.716	4.5	0.0	-5.8	3.8
O/N=C(\c1ccccn1)C1CC1c1ccccc1 (stereo not drawn)	x	25.4%	x	16.2	0.1	1.0	2.2
Cc1ccccc1CCNC(=O)C1CCCN(c2cnccn2)C1 (stereo not drawn)	-16.6	-4.1%	0.697	x	x	-0.1	0.2
CCOc1ccc(-n2nc(C(=O)NC3CCCCC3)c3ccccc3c2=O)cc1	-49.3	-6.7%	0.701	-0.9	0.3	0.4	0.7
CCCCn1c(N)c(N(CCOC)C(=O)c2cc(-c3ccccc3)nc3ccccc23)c(=O)[nH]c1=O	-5.4	-8.2%	0.708	x	-0.9	1.2	-1.3
O=C(c1ccc(N2CCCC2)c([N+](=O)[O-])c1)N1CCN(CCO)CC1	5.6	14.0%	0.735	7.3	0.0	-17.2	-8.2
Cc1ccc(Cn2nnc3c(=O)n(CC(=O)NCC4CCCO4)cnc32)cc1 (stereo not drawn)	3.9	-5.9%&15.3%	0.673	-4.7	0.1	-9.0	-2.2
Cc1nn(Cc2ccccc2)c(Cl)c1C(=O)OCc1nnc(-c2ccc(Cl)cc2)o1	3.0	-4.7%	0.734	-1.6	0.1	3.8	8.4

Retrieved by structure from the entries so far (3):
SMILES	UCH37 DUB inh	Vif TR-FRET	E coli growth	LANA-H2B inh	Bfl-1 A1 inh	B2AR ag	HNF4A DNA FP
CCCc1cc(C(=O)NC2CCCN(Cc3ccccc3F)C2)no1 (stereo not drawn)	-1.4	x	0.678	3.9	0.1	-8.8	-0.2
CCCCn1c(N)c(N(CCOC)C(=O)c2cc(-c3ccccc3)nc3ccccc23)c(=O)[nH]c1=O	-5.4	-8.2%	0.708	x	-0.9	1.2	-1.3
O=C(c1ccc(N2CCCC2)c([N+](=O)[O-])c1)N1CCN(CCO)CC1	5.6	14.0%	0.735	7.3	0.0	-17.2	-8.2

The list continues.
SMILES	UCH37 DUB inh	Vif TR-FRET	E coli growth	LANA-H2B inh	Bfl-1 A1 inh	B2AR ag	HNF4A DNA FP
COc1cc2c(C(F)(F)F)c(-c3ccsc3)oc(=O)c2cc1OC	3.2	6.0%	0.724	-3.9	-1.0	8.6	3.7
COc1cccc(C(=O)NC(C)c2ccc(Br)cc2)c1 (stereo not drawn)	4.6	x	0.698	-0.9	-0.5	8.8	-2.2
NS(=O)(=O)c1ccc(CCNC(=O)c2ccccc2-c2ccccc2)cc1	0.0	x	0.674	-3.5	1.1	-3.9	5.4
COc1ccc(NC(=O)Cn2nnc(C(=O)NCc3ccccc3)c2N)cc1Cl	6.0	-2.1%	0.826	x	0.4	-2.4	-2.4
COc1ccc(C(=O)N/N=C/c2cccc3cccnc23)cc1	x	-6.0%	x	-1.3	0.5	-1.1	-2.6
CCOc1cnc(-c2c(-c3ccccc3Cl)noc2C)o1	3.3	-1.8%	0.651	-0.6	0.5	11.8	-4.9
Cc1[nH]n(-c2ccccc2)c(=O)c1C=Nc1ccc(S(=O)(=O)NC(N)=O)cc1	12.8	-8.1%	0.706	2.2	-0.2	-0.6	-2.9
CC1(C)S[C@@H]2[C@H](NC(=O)[C@H](N)c3ccc(O)cc3)C(=O)N2[C@H]1C(=O)O	-1.1	x	x	-2.8	-0.1	-9.6	0.5
O=C1C2C3C=CC(C3)C2C(=O)N1c1cccnc1 (stereo not drawn)	2.5	-1.6%	0.655	-4.4	0.6	4.0	1.3
Cc1ccc(NC(=O)c2nnn(-c3cccc(C(F)(F)F)c3)c2N)cc1	2.4	20.5%	0.734	-2.5	-0.5	-3.6	3.3
O=S(=O)(NCCc1csc(-c2cccnc2)n1)c1cccc(F)c1	-0.3	-5.5%	0.727	0.0	1.1	-13.7	5.2
Cc1nn(C(C)c2n[nH]c(=S)n2-c2cccc(Cl)c2)c(C)c1[N+](=O)[O-] (stereo not drawn)	2.5	0.2%	0.693	-0.2	0.7	-4.0	-2.7
C#CCOCCOCCOCCNc1nc(N2CCN(C(=O)[C@H](Cc3ccc(O)cc3)n3cc([C@@H](N)CC(C)C)nn3)CC2)nc(N2CCN(C(=O)[C@H](Cc3cc4ccccc4[nH]3)n3cc([C@@H](N)CC(C)C)nn3)CC2)n1	-1.9	2.2%	x	-2.6	-0.2	x	x
O=C(NC1CCCC1)C(c1cccs1)N(Cc1ccco1)C(=O)c1csnn1 (stereo not drawn)	1.8	30.4%	0.708	2.8	0.4	0.3	-0.7
O=C(Cc1ccccc1)NN1C(=O)c2ccccc2C1=O	-1.3	12.0%	0.641	-1.8	0.3	6.4	-6.2

Random draw from the library (roughly 2.1% active in at least one column).
